Compound activity from PubChem BioAssay.
NPYLR7 ag – mosquito NPYLR7 agonism. HEK293T NPYLR7/Galpha15, GCaMP6s calcium fluorescence. activation, % at 10 µM. actives 0.15% (n = 270,000); in the data active = activation above about 40%;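 note: 0% = vehicle and 100% = reference agonist at the receptor; some compounds past the cut are filed as inactive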
NPYLR7 ag max-min – recorded beside NPYLR7 ag, whose call it bears; activation, %; measured here: Max-Min RFU normalised activation; some inactives read as strong as hits;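 span of the calcium signal over five minutes; 0% = vehicle and 100% = native peptide agonist; compound fluorescence can raise it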
Starred values were filed as active, the others as inactive; & = joins results of further samples. An excerpt, so the mix of outcomes need not match the whole.

SMILES	NPYLR7 ag	NPYLR7 ag max-min
CC(C)=CCCC(C)CN1CCC(N2CCC(C(=O)NC(C)C)CC2)CC1 (stereo unspecified)	-1	-4
Cc1onc(-c2ccccc2)c1C(=O)Nc1cc2cc(Br)ccc2oc1=O	-2	-5
CC(C)Cc1cc(C(=O)N2CCC(n3cc(-c4ccccn4)nn3)CC2)on1	3	3
Cc1nc(C2CCNCC2)cc(N(C)CCc2noc(C(C)C)n2)n1	2	-1
O=C(O)c1cc(=O)cc[nH]1	-2	6
CN1CCCC[C@]2(C[C@H](C(=O)O)[C@H](c3ccco3)N2C(=O)Cc2ccccc2)C1=O	5	15
Cc1cc(CSc2nnc(-c3cccs3)n2C2CC2)on1	-1	5
CN1C(=O)C(CCC(=O)NCc2ccno2)(Cc2ccccc2)c2ccccc21 (stereo unspecified)	0	-1
Cn1cc(C(CC(=O)N2CCN(c3ccccc3F)CC2)c2cccc(C(F)(F)F)c2)c2ccccc21 (stereo unspecified)	0	7
O[C@@H]1CN(c2ncccn2)CC[C@H]1N1CCN(CCc2ccccc2)CC1	0	-5
c1cc(CN2CCCC2c2nc(-c3ccncc3)no2)n(-c2nccs2)c1 (stereo unspecified)	-2	-3
COc1ccc(C(=O)Nc2c(N)nc(SCc3cccc4ccccc34)[nH]c2=O)cc1OC	3	2
O=C1CC(c2cccs2)CC2=Nc3ccccc3NC(c3ccc(Cl)s3)C12 (stereo unspecified)	4	2
COc1cccc(C(=O)N(Cc2c(-c3ccccc3F)noc2N2CCOCC2)CC2CCCO2)c1 (stereo unspecified)	9	15
Cc1nc(Cc2noc(Cc3c(F)cccc3Cl)n2)no1	1	-1
CC(C)NC(=O)NC(=O)COc1ccccc1-c1nc2ccccc2s1	1	0
O=S(=O)(NC1CCN2CCCCC12)c1ccc(F)cc1Cl (stereo unspecified)	-2	-4
Cc1nc(-c2cccc(-c3cc(N)nc4[nH]ccc34)c2)no1	1	2
CCN(CC)CCSc1c(C(C)C)cnc2c1c(=O)n(C)c(=O)n2C	9	16
CS(=O)(=O)NCC1CCCCN1C(=O)Nc1cccc(Cn2cccnc2=O)c1 (stereo unspecified)	3	3
Cn1c(=O)n(Cc2ccc(F)cc2)c(=O)c2c1nc1oc(-c3ccccc3)cn12	0	4
NC(=O)Cn1ccn2nc(-c3ccc(Cl)cc3)cc2c1=O	3	2
CCn1cc(C(CC(=O)N2CCN(Cc3ccc4c(c3)OCO4)CC2)c2cccc(Cl)c2)c2ccccc21 (stereo unspecified)	12	22
CC(=O)c1cc(CN2CCC3(CCCN(Cc4ccc(F)c(F)c4)C3)C2)cs1 (stereo unspecified)	17	10
CCOc1cc(C(=O)OCc2nc(N)c3c(C)c(C)sc3n2)cc(OCC)c1OCC	1	-3
Cc1cc(NC(=O)CON=C2CCN(C(=O)C3CC3)CC2)ccc1Br	7	3
Cc1ccsc1[C@@H]1CCN(Cc2cnc(-c3ccccn3)nc2)C[C@H]1O	16	11
CCOC(=O)c1c(C)[n+]([O-])c2ccc3c(non3O)c12	3	0
Cc1ncsc1C(=O)N1CCCC(CNC(=O)c2ccc(-c3ccccc3)cc2)C1 (stereo unspecified)	10	1
Nc1nc(-c2ccc(F)cc2)cc(C(F)(F)F)n1	13	7

19 entries from above in a different format:
Molecule | NPYLR7 ag | NPYLR7 ag max-min
CC(C)=CCCC(C)CN1CCC(N2CCC(C(=O)NC(C)C)CC2)CC1 (stereo unspecified) | -1 | -4
Cc1onc(-c2ccccc2)c1C(=O)Nc1cc2cc(Br)ccc2oc1=O | -2 | -5
CC(C)Cc1cc(C(=O)N2CCC(n3cc(-c4ccccn4)nn3)CC2)on1 | 3 | 3
Cc1nc(C2CCNCC2)cc(N(C)CCc2noc(C(C)C)n2)n1 | 2 | -1
O=C(O)c1cc(=O)cc[nH]1 | -2 | 6
CN1CCCC[C@]2(C[C@H](C(=O)O)[C@H](c3ccco3)N2C(=O)Cc2ccccc2)C1=O | 5 | 15
Cc1cc(CSc2nnc(-c3cccs3)n2C2CC2)on1 | -1 | 5
CN1C(=O)C(CCC(=O)NCc2ccno2)(Cc2ccccc2)c2ccccc21 (stereo unspecified) | 0 | -1
Cn1cc(C(CC(=O)N2CCN(c3ccccc3F)CC2)c2cccc(C(F)(F)F)c2)c2ccccc21 (stereo unspecified) | 0 | 7
O[C@@H]1CN(c2ncccn2)CC[C@H]1N1CCN(CCc2ccccc2)CC1 | 0 | -5
c1cc(CN2CCCC2c2nc(-c3ccncc3)no2)n(-c2nccs2)c1 (stereo unspecified) | -2 | -3
COc1ccc(C(=O)Nc2c(N)nc(SCc3cccc4ccccc34)[nH]c2=O)cc1OC | 3 | 2
O=C1CC(c2cccs2)CC2=Nc3ccccc3NC(c3ccc(Cl)s3)C12 (stereo unspecified) | 4 | 2
COc1cccc(C(=O)N(Cc2c(-c3ccccc3F)noc2N2CCOCC2)CC2CCCO2)c1 (stereo unspecified) | 9 | 15
Cc1nc(Cc2noc(Cc3c(F)cccc3Cl)n2)no1 | 1 | -1
CC(C)NC(=O)NC(=O)COc1ccccc1-c1nc2ccccc2s1 | 1 | 0
O=S(=O)(NC1CCN2CCCCC12)c1ccc(F)cc1Cl (stereo unspecified) | -2 | -4
Cc1nc(-c2cccc(-c3cc(N)nc4[nH]ccc34)c2)no1 | 1 | 2
CCN(CC)CCSc1c(C(C)C)cnc2c1c(=O)n(C)c(=O)n2C | 9 | 16

The list goes on:
SMILES	NPYLR7 ag	NPYLR7 ag max-min
c1cncc(CNc2cc(-c3ccc4cn[nH]c4c3)c3cc[nH]c3n2)c1	0	-4
Cc1c(C(=O)N(Cc2ccco2)C2CC2)[nH]c2c1C(=O)CC(C)(C)C2	8	4
C/C(=C/c1ccc(F)cc1)C(=O)N1CCCN(C2CCOCC2)CC1	1	13
CC(C)Cc1ccc(C(O)CN2CCCN3CCCC3C2)cc1 (stereo unspecified)	6	6
Clc1ccccc1C1SCC2Nc3ccccc3CN21 (stereo unspecified)	1	0
Cc1c(C(=O)NC(C)c2ccc(Br)cc2)cnc2c(-c3cccc(Cl)c3)cnn12 (stereo unspecified)	15	2
CC1(C)OCC(CN2C(=O)c3ccccc3NC2c2ccnc3ccccc23)O1 (stereo unspecified)	0	-2
CCCNC(=O)C(C)NC(=O)c1cc(C)c(C)c(S(=O)(=O)N2CCC(C)CC2)c1 (stereo unspecified)	1	-1
CCc1nc(C)c(C(=O)OC2CC3CCC2C3)s1 (stereo unspecified)	0	-1
Cc1ccc(CNc2ccc(C(=O)NCc3cnc(C)cn3)cc2)cc1	7	7
O=C(O)CCC(=O)OC1CC2CCC1C2 (stereo unspecified)	1	7
COC(=O)N(C)C(CC(=O)C(C)(C)C)c1ccccc1 (stereo unspecified)	-5	-6
Cc1ccc(C)c(-n2c(CNC(=O)COc3ccccc3)nnc2SCC(=O)Nc2nccs2)c1	6	8
O=c1nc(SCc2cccc3ccccc23)c2c([nH]1)CCCC2	-2	-5
CCn1cc(C(=O)NN)cn1	1	41
C/C(CC(C)C)=N/Nc1nc(-c2cc3ccccc3oc2=O)cs1	-8	-12
O=C(CN1CCCNC1=O)Nc1ccccc1C(=O)C1CCCC1	2	27
CCOC(=O)N1CCN(C(=O)c2cc3n(n2)CCN(Cc2c(Cl)cccc2Cl)C3=O)CC1	16	21
O=C(NCCn1ncc2c(N3CCOCC3)ncnc21)C1COc2ccccc2O1 (stereo unspecified)	2	1
c1ccc(-c2ccc(-c3nc(-c4ccccn4)no3)cc2)cc1	14	10
CN(Cc1ccco1)C(=O)c1ccccc1N1CCC(NC(=O)c2ccc(F)cc2F)CC1	-2	10
O=S(=O)(Oc1ccc(C2SCCS2)cc1)c1cccs1	7	3
COCCCN(CC(=O)N1CCc2sccc2C1COc1ccc(Cl)c(C)c1)C(=O)c1ccccc1OC (stereo unspecified)	4	7
CCOC(=O)Cn1c(C2CC(=O)N(c3cc(C)cc(C)c3)C2)nc2ccccc21 (stereo unspecified)	3	-2
Cc1ccc2nc(C)c(NC(=O)c3ccccc3F)c(=O)n2c1	4	1
CCC(=O)N1CCN(c2ncnc3c2nnn3CC)CC1	1	8
Cc1cn2c3c(=O)n(C)c(=O)n(C)c3nc2n1CCN1CCN(c2ccccc2)CC1	-11	-11
CC(C)c1cc(C(=O)N2CCC(c3cc(-c4ccco4)n[nH]3)CC2)n(C)n1	1	-2
O=C(Nc1cc(Cl)cc(Cl)c1)N1CCN(c2ccc(-c3ccco3)nn2)CC1	-4	-5
COC(=O)c1ccc(C2c3c(oc4ccc(Br)cc4c3=O)C(=O)N2C)cc1 (stereo unspecified)	1	0
COc1ccc(S(=O)(=O)N2CCCC(C)C2)cc1N1CCN(C(=O)c2cc3ccccc3s2)CC1 (stereo unspecified)	26	18
C=CCn1cc(/C=C(/C#N)c2cccc(F)c2)c2ccccc21	4	0
CCOc1cc(C)c(S(=O)(=O)NCc2ccc3c(c2)OCO3)cc1C	-2	-6
CCC(=O)NCc1ccccc1-c1ccc2c(c1)OCCO2	6	4
Cc1ccc(N=Nc2c(-c3ccccc3)[nH]n(-c3nc(-c4ccccc4)cs3)c2=O)cc1Br	14	12
COc1ccc(C2=NC(=Cc3ccc(OCC(N)=O)cc3)C(=O)O2)cc1	14	5
COCC(=O)Nc1c2c(nn1CC(=O)NCCc1ccccc1)CSC2	-3	-2
CC(C)CCNC(=O)c1ccc(Nc2c(Oc3cccc(Cl)c3)cnn(C)c2=O)cc1	1	6
O=C(c1cn[nH]n1)N(Cc1ccccc1)Cc1nccs1	0	2
O=C(Nc1sc2c(c1C(=O)Nc1ccccc1)CCCC2)c1ccco1	6	8
O=C(c1ccc2cc[nH]c2c1)N1CCOC(COCc2ccccc2F)C1 (stereo unspecified)	27	31
COc1cc(NC(=O)CSc2nccn3nc(-c4ccc(C)cc4)cc23)cc(OC)c1	-1	-3
CCN(Cc1nccn1Cc1cccc(C(F)(F)F)c1)C(=O)c1ccc(Cl)cc1	28	29
COc1cccc(C(=O)N2CCCC(CO)(Cc3ccccc3)C2)c1OC (stereo unspecified)	-3	1
O=C(NCCOc1ccccc1)c1cc2n(n1)CCN(Cc1cccc(F)c1)C2=O	20	12
O=c1c(-c2cc3ccccc3o2)coc2ccccc12	1	1
CC(C)COc1ccc(C(=O)Nc2ncn[nH]2)cc1	-1	-3
CCc1cc(=O)[nH]c(-n2nc(C)cc2NC(=O)c2cccc(C)c2)n1	8	4
COc1cccc(CN2CC(O)CN(C(=O)c3ccc(Cl)cc3)CC2=O)c1OC (stereo unspecified)	0	1
CC(C)(C)CN1CCC(C2CCN(C(=O)CN3CCCCC3=O)CC2)C1 (stereo unspecified)	19	6
More records.
SMILES	NPYLR7 ag	NPYLR7 ag max-min
O=P1(NN=Cc2ccncc2)C=C(c2ccccc2)OC(c2ccccc2)=C1	3	3
CCOC(=O)C1CCCN(C(=O)c2ccc(CSc3nc(N4CCCCC4C)cc(C(F)(F)F)n3)o2)C1 (stereo unspecified)	18	16
Nc1c(C(=O)Nc2ccccc2)c2nc3ccccc3nc2n1/N=C\c1ccco1	-2	-5
O=C(CN1C(=O)C(=O)N(CCC2=CCCCC2)C1=O)c1ccc(Br)s1	-7	21
O=C(Nc1ccc(C(F)(F)F)cc1)N1CCN(c2nc(Cc3ccc(Cl)cc3)ns2)CC1	18	17
CCCCCn1nc(C(=O)NC(CO)C(=O)OC)c2ccccc2c1=O (stereo unspecified)	6	4
Cc1nc2ccccc2nc1CN1CCc2ccccc2C1	8	6
Cn1cccc1C(=O)NC(=O)CSc1nnc(-c2ccco2)n1C1CCCCC1	7	9
COc1ccc(CCNC2CC(=O)N(c3ccc(F)cc3)C2=O)cc1 (stereo unspecified)	0	-3
CC1CN(CCCCNC(=O)c2ccc3ncccc3c2)CC(C)O1 (stereo unspecified)	-1	-1
CC(NC(=O)C1CC1c1ccco1)c1cccc(N2CCCC2=O)c1 (stereo unspecified)	-23	-26
CC1(C(=O)Nc2cnc3ccccc3c2)CCN1C(=O)C1(c2ccccc2)CCCC1 (stereo unspecified)	7	12
O=C(CCc1nc2ccc(F)cc2[nH]1)N1CCc2c([nH]c3ccccc23)C1c1ccccn1 (stereo unspecified)	-2&-2	-5&-1
Cc1cc(=O)[nH]c(C(C)OC(=O)c2c(C)nn(C)c2C)n1 (stereo unspecified)	-7	735
Cc1nc(COc2ccc(C(=O)NC3CCCCCCC3)cc2)no1	3	0
OCCNc1nc(Cl)nc(Nc2ccc(Cl)cc2)n1	8	5
CCOC(=O)C1CCCN(c2cc(C(F)(F)F)nc3ncnn23)C1 (stereo unspecified)	-5	-5
COc1ccccc1-c1cc(CN(C(=O)c2ccc([N+](=O)[O-])cc2)C2CC2)no1	4	4
Cc1nc2cccc(C)n2c(=O)c1NC(=O)c1cc(Br)ccc1Cl	4	2
O=S(=O)(c1ccc2c(c1)CCO2)N1CCCC1Cc1cccc(F)c1 (stereo unspecified)	9	6
Cc1ccc(-c2csc3ncn(CCO)c(=O)c23)cc1C	1	0
CCOC(=O)N1CCN(C(=O)C2CCC(=O)N(CCCN3CCOCC3)C2)CC1 (stereo unspecified)	1	-3
O=C(NCc1ccco1)c1csc(COc2cc(Cl)ccc2Cl)n1	14	14
CC(C)CN(C(=O)CCC1CCCCC1)c1c(N)n(CC(C)C)c(=O)[nH]c1=O	23	17
O=C(Nc1cccc(F)c1)Nc1ccc(N2CCCC2)c(C(=O)NCc2ccccc2)c1	5&22	5&26
Cc1cc(Br)c(NC(=O)CN2CCC(C(=O)N3CCCC3)CC2)c(Br)c1	0	6
Cc1cc2nc(-c3cccc(NC(=O)c4cccc(F)c4)c3)oc2cc1C	-2	-5
CC1(C(=O)Nc2ccccc2Br)CCN1C(=O)CC1CCCC1 (stereo unspecified)	4	1
COc1ccc(/C=N\NC(=O)CSc2nc3ccccc3n2C)cc1OC	-13	-17
